# Bioassay records (PubChem BioAssay)
# FGF22 binding: FGF22 (human) thermal shift binding. Q9HCT0. recombinant FGF22 thermal shift, SYPRO orange fluorescence; percent of sucrose octasulfate shift, DMSO zero. calls only at 9.99 µM. actives 1.5% (n = 340,000);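 active = melting point raised past a set limit in the mean and every replicate; inconclusive = no clear call; three in four hits are not shown here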
# Target sequence (Q9HCT0 whole entry, looked up): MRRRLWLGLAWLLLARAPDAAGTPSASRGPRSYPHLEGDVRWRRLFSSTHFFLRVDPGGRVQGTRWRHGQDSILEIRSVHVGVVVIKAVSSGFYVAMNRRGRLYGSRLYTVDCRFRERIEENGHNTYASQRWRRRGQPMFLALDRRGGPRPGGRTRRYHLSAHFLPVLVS
# MLL AF4-AF9 inh: MLL-AF4/AF9 protein interaction inhibition | AlphaScreen, biotin-AF4 peptide binding to FLAG-AF9 | AID 651704 | inhibition, % at 10 µM | actives 0.47% (n = 350,000);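 active = every replicate reaching a set inhibition limit, whatever the replicate mean, cut at about 25% in these data; inconclusive = mean inhibition reaches that limit but some replicates miss it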;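 also: 0% = plate neutral control median and 100% = total signal loss; the record names both 10 and 1 µM as test concentration; the first replicate is given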
# Target sequence (P42568 whole entry, looked up): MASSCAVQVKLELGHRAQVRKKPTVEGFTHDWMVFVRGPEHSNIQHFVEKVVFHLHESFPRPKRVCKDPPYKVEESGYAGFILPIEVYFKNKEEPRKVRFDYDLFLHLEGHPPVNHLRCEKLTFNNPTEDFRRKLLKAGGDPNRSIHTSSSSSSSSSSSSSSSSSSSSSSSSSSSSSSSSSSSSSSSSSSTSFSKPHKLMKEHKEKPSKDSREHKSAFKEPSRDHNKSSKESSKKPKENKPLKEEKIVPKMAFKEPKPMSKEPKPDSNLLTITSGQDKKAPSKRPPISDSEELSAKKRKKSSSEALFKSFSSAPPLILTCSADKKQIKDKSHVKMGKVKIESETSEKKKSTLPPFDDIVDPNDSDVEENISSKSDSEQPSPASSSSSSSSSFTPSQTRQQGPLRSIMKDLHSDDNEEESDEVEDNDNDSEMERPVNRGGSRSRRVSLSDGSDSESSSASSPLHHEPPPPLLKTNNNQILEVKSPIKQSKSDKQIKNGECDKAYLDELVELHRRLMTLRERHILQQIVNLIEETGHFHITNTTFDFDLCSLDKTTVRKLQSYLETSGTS
# rRNA inh HTS: selective bacterial rRNA inhibition in E. coli | actives 1.6% (n = 350,000) | E. coli WT GFP vs humanized-ribosome RFP mutants, fluorescence, 24 h; active compounds read low; DMSO median 0, no signal -100 | GFP signal change (wild-type ribosome), % (test concentration not listed);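 active = significant combined selectivity score with lowered wild-type GFP, culture density cut under 30%, mutant RFP and density less affected; inactive = any of these conditions unmet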; also: one replicate is shown; some compounds called inactive have numbers as strong as hits
# rRNA inh HTS OD600: also measured in rRNA inh HTS; calls as there; OD600 change, %; measured here: OD600 growth;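 optical density of the mix in the first replicate; 0 = DMSO median and -100 = no signal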
# rRNA inh HTS RFP: recorded beside rRNA inh HTS, whose call it bears; RFP signal change, %; measured here: RFP humanized mutant strains;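 first replicate; 0 = DMSO median and -100 = no signal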
# Numbers without * were called inactive; i = inactive; ? = inconclusive; + = active, no number; & = joins results of further samples.
FGF22 binding	MLL AF4-AF9 inh	rRNA inh HTS	rRNA inh HTS OD600	rRNA inh HTS RFP	canonical_smiles
i	-2.4	1.6	-3.0	-2.8	COc1ccc(CN(C)C[C@H]2Oc3ccc(NS(=O)(=O)c4cn(C)cn4)cc3CC(=O)N([C@@H](C)CO)C[C@@H]2C)cc1
i	5.9	0.4	-2.3	1.2	N#C[C@@H]1[C@H](c2ccccc2-c2ccccc2)[C@H](CO)N1C(=O)Cc1cccnc1
i	0.1	-13.8	-5.9	4.9	COc1cc(-c2cc3nc(NCc4ccco4)ccn3n2)cc(OC)c1OC
i	0.8	-4.7	9.3	0.3	Cc1noc(C)c1NC(=O)NCC[C@@H]1CC[C@@H](NC(=O)Cc2cccnc2)[C@@H](CO)O1
i	3.3	-4.3	-5.9	-2.6	C[C@@H]1CN([C@H](C)CO)S(=O)(=O)c2ccc(-c3cccnc3)cc2O[C@H]1CN(C)C(=O)NC1CCCC1
i	-2.2	6.6	8.2	-0.2	C[C@@H]1CN([C@H](C)CO)C(=O)c2cc(C#CCN(C)C)cnc2O[C@@H]1CN(C)C(=O)NC1CCCC1
i	-0.5	2.9	4.2	-1.2	C[C@H](CO)N1C[C@H](C)[C@@H](CN(C)Cc2ccc(-c3ccccc3)cc2)Oc2ccc(NC(=O)Nc3cccc4ccccc34)cc2C1=O
i	-1.9	6.6	11.0	3.7	CC(=NNC(=S)N1CC2CCC(CC2)C1)c1cnccn1
i	8.7	-11.8	-28.9	22.2	C[C@@H]1CN([C@@H](C)CO)C(=O)Cc2cc(NC(=O)Nc3ccc(C(F)(F)F)cc3)ccc2O[C@H]1CN(C)Cc1ccccc1
i	-7.3	-4.3	-5.4	2.1	C[C@@H]1CCCCO[C@@H](CN(C)C(=O)C2CCCCC2)[C@H](C)CN([C@H](C)CO)C(=O)c2cc(NS(=O)(=O)c3cccs3)ccc2O1
i	-2.5	0.8	4.3	-2.9	COC(=O)c1ccc(CN2C(=O)C(Cc3ccccc3)ON=C2c2ncccc2C)o1 (configuration not stated)
i	-0.6&-2.4&0.2	-4.7&0.0	-3.8&3.1	-1.3&0.1	C[C@H]1CN([C@@H](C)CO)C(=O)c2cc(-c3ccccc3F)cnc2O[C@@H]1CN(C)C(=O)NC1CCCCC1
i	-19.1	9.5	12.2	28.9	COc1ccc(-c2nc3ccc(Cl)cn3c2NC2CCCCC2)cc1SC1CCCCC1
i	0.4	-0.4	7.6	-2.2	O=C(C[C@@H]1C[C@H]2c3cc(NC(=O)c4ccc5c(c4)OCO5)ccc3O[C@H]2[C@@H](CO)O1)NCc1cccnc1
i	0.1	1.8	1.9	-1.2	CO[C@@H]1CN(C)C(=O)c2cc(NC(=O)Cc3ccccc3)ccc2OC[C@@H](C)N(C(C)=O)C[C@@H]1C

# A few values from the list:
# `Cc1noc(C)c1NC(=O)NCC[C@@H]1CC[C@@H](NC(=O)Cc2cccnc2)[C@@H](CO)O1` in MLL AF4-AF9 inh = 0.8
# `COc1ccc(CN(C)C[C@H]2Oc3ccc(NS(=O)(=O)c4cn(C)cn4)cc3CC(=O)N([C@@H](C)CO)C[C@@H]2C)cc1` in rRNA inh HTS OD600 = -3.0

# Going on with the list.
FGF22 binding	MLL AF4-AF9 inh	rRNA inh HTS	rRNA inh HTS OD600	rRNA inh HTS RFP	canonical_smiles
i	-2.9	2.2	1.9	-0.6	C[C@@H]1CN([C@H](C)CO)C(=O)c2cc(NC(=O)CCN3CCOCC3)ccc2O[C@H]1CN(C)C(=O)Nc1ccc2c(c1)OCO2
i	-3.2	-9.7	-4.3	2.6	O=C(Nc1ccc(Cl)cc1)N[C@@H]1CC[C@@H](CCNS(=O)(=O)c2ccccc2F)O[C@@H]1CO
i	7.7	-4.5	-15.1	6.6	C[C@H](CO)N1C[C@H](C)[C@@H](CN(C)C(=O)c2ccccc2)Oc2cc(C3=CCCCC3)ccc2S1(=O)=O
i	1.6	-10.2	4.0	0.5	O=C(Cc1ccc(Cl)cc1)N/N=C/c1ccc(O)c(O)c1
i	33.0*	-65.2	-74.5	-18.8	CN(C)CCCN1c2ccc3ccccc3c2Sc2cccc(Cl)c21
i	-0.4	-0.8	-0.8	2.7	C/C=C/c1ccc([C@H]2[C@@H](CO)N(Cc3ccccn3)[C@H]2CNC(C)=O)cc1
i	0.0	-7.3	-1.9	-0.5	C[C@H](NC(=O)C[C@@H]1C=C[C@@H](NC(=O)Nc2ccc3c(c2)OCO3)[C@H](CO)O1)c1ccccc1
i	-1.6	-5.6	-3.0	-0.5	COc1ccc(CN(C)C[C@@H]2Oc3c(NC(=O)c4cc(C)nn4C)cccc3C(=O)N([C@@H](C)CO)C[C@H]2C)cc1
i	-4.6	20.0	11.4	1.5	CC1=C(C(=O)N2CCOCC2)CC(CC(=O)NC2CCCC2)C(=O)N1Cc1ccc(F)cc1 (configuration not stated)
i	-0.6	-0.7	-2.5	-2.6	COc1ccc(S(=O)(=O)N(C)C[C@@H]2OCCCC[C@@H](C)Oc3ccc(NS(=O)(=O)c4ccccc4)cc3C(=O)N([C@H](C)CO)C[C@@H]2C)cc1
i	0.5	2.4	-17.5	29.9	C[C@@H]1CN([C@@H](C)CO)S(=O)(=O)c2ccc(C#CC3CCCC3)cc2O[C@H]1CN(C)C
?	-3.3&-2.2	4.6&3.5	5.1&-3.8	-1.8&-3.8	CC(=O)N(C)C[C@@H]1Oc2ncc(Br)cc2C(=O)N([C@H](C)CO)C[C@@H]1C
i	0.4	4.9	6.7	0.1	COc1ccc2c3c([nH]c2c1)[C@@H](CO)N(C(=O)c1cnccn1)CC31CCN(S(C)(=O)=O)CC1
i	6.0	-0.4	9.2	0.0	C[C@H](CO)N1C[C@H](C)[C@@H](CN(C)C(=O)CCCN(C)C)OCCCC[C@H](C)Oc2ccc(NC(=O)Nc3ccccc3)cc2C1=O
i	3.8	0.8	-6.9	1.9	COc1ccc(NC(=O)Nc2ccc3c(c2)C(=O)N([C@H](C)CO)C[C@@H](C)[C@H](CN(C)C(=O)Cc2ccccc2)OCCCC[C@@H](C)O3)cc1

# Full records, quoted from the list. Order of screens: FGF22 binding | MLL AF4-AF9 inh | rRNA inh HTS | rRNA inh HTS OD600 | rRNA inh HTS RFP
# CN(C)CCCN1c2ccc3ccccc3c2Sc2cccc(Cl)c21 in the list: i | 33.0* | -65.2 | -74.5 | -18.8
# CC1=C(C(=O)N2CCOCC2)CC(CC(=O)NC2CCCC2)C(=O)N1Cc1ccc(F)cc1 (configuration not stated) in the list: i | -4.6 | 20.0 | 11.4 | 1.5
# CC(=O)N(C)C[C@@H]1Oc2ncc(Br)cc2C(=O)N([C@H](C)CO)C[C@@H]1C in the list: ? | -3.3&-2.2 | 4.6&3.5 | 5.1&-3.8 | -1.8&-3.8

# Going on with the list:
FGF22 binding	MLL AF4-AF9 inh	rRNA inh HTS	rRNA inh HTS OD600	rRNA inh HTS RFP	canonical_smiles
i	-1.3	7.6	11.0	0.3	COCCC(=O)N1CCOCC1c1cc(C(=O)NCc2ccccc2)no1 (configuration not stated)
+	-7.7	-25.2	-48.1	6.5	O=C(NCC[C@@H]1CC[C@@H](NC(=O)C2CCOCC2)[C@H](CO)O1)Nc1ccc(Cl)cc1
i	2.3	8.8	14.6	-1.5	COc1ccccc1NS(=O)(=O)c1cc(C(=O)NC2CC(C)(C)NC(C)(C)C2)ccc1Cl
i	-2.1	-6.0	-0.8	-0.2	COc1ccc(S(=O)(=O)Nc2ccc3c(c2)C(=O)N([C@H](C)CO)C[C@H](C)[C@H](CN(C)Cc2ccc(C(=O)Nc4ccccc4N)cc2)OCCCC[C@@H](C)O3)cc1
i	-0.1	-3.2	-5.7	-2.6	O=C(NCc1ccco1)c1cccc(-c2ccc3nccn3c2)c1
i	3.4	2.7	-3.8	1.1	O=C(NNc1nc(N2CCCC2)nc(N2CCCC2)n1)c1ccccc1
i	4.2	1.0	-8.9	-0.1	C[C@@H]1CN([C@@H](C)CO)C(=O)c2cccc(NC(=O)Nc3ccccc3)c2O[C@H]1CN(C)S(=O)(=O)c1ccc(F)cc1
i	-0.2	5.4	5.5	-0.2	COc1ccc(CCN2CC(C(=O)NCCCc3ccncc3)CCC2=O)cc1 (configuration not stated)
i	-5.6	2.1	3.4	1.8	CNC(=O)C[C@@H]1CC[C@@H]2[C@@H](COc3ccc(NC(=O)c4cccc(OC)c4)cc3C(=O)N2C)O1
i	-1.7	-6.5	-7.4	-2.1	O=C(NCC[C@H]1CC[C@H](NS(=O)(=O)c2ccccc2F)[C@H](CO)O1)c1ccc(F)cc1
i	-3.1	4.8	0.8	-0.1	COCC(=O)N[C@@H]1C=C[C@H](CC(=O)NCc2ccccc2OC)O[C@H]1CO
i	-0.6	-2.7	-2.0	3.7	C[C@@H]1CN([C@@H](C)CO)C(=O)Cc2cc(NC(=O)Nc3ccc(F)cc3)ccc2O[C@H]1CN(C)C(=O)Nc1ccccc1
i	2.6	-1.5	-8.6	-1.5	CC=Cc1ccc2n(c1=O)C[C@H]1[C@H](CO)[C@@H](C(=O)N3CCc4ccccc4C3)[C@@H]2N1Cc1ccncc1 (mixture of isomers)
i	-0.1	4.7	-1.0	-11.0	Cc1c(C(=O)NCCC#N)sc(=O)n1Cc1ccccc1F
i	2.4	2.2	1.6	-1.0	CC=Cc1ccc2n(c1=O)C[C@H]1[C@H](CO)[C@@H](C(=O)NCc3ccc4c(c3)OCO4)[C@@H]2N1C(=O)C1CC1 (mixture of isomers)
i	-1.6	-0.2	-10.8	2.6	COCOc1cccc(CN2CCC(C)(Oc3ccc(SC)cc3)C2)c1 (configuration not stated)
i	-1.0	2.0	14.8	-1.4	COc1ccc(CN2C(=O)CCC2(C)c2nnnn2-c2c(C)cccc2C)cc1OC (configuration not stated)
i	-0.1	-6.5	-17.4	-3.8	NC(=O)c1ccsc1NC(=O)COC(=O)[C@@H]1CCCN1C(=O)c1cccs1
i	11.2	-1.8	7.1	2.5	CCNC(=O)c1cc2c(c(-c3cccc(-c4cccc(OC)c4)c3)n1)[C@H](CCO)N([S@@](=O)C(C)(C)C)C2
i	1.2	-0.6	1.2	-2.9	C[C@H]1CN([C@@H](C)CO)C(=O)c2cccc(NC(=O)C3CC3)c2O[C@H]1CN(C)Cc1ccc(Cl)c(Cl)c1
i	-2.3	-1.9	1.8	34.2	CCCNC(=O)C[C@H]1CC[C@@H]2[C@H](COC[C@H](O)CN2C(=O)C2CCOCC2)O1
i	?	-14.1	-66.0	22.4	CCC(=O)N1CC2(CN(Cc3ccc(Cl)cc3)C2)c2c([nH]c3cc(OC)ccc23)[C@@H]1CO
i	11.5	-60.0&-62.0&-62.5	-79.3&-81.4&-79.8	-18.9&-19.7&-18.2	CO[C@H]1CN(C)C(=O)c2ccc(NC(=O)Nc3ccc(Cl)c(Cl)c3)cc2OC[C@H](C)NC[C@@H]1C
i	-0.7	4.6	7.8	3.4	COc1ccc(NC(=O)C2(C)CCCN(C(C)=O)C2)cc1F (configuration not stated)
i	1.8	1.0	-2.4	-0.7	CC(C)NC(=O)N(C)C[C@@H]1Oc2ccc(NC(=O)Nc3ccc4c(c3)OCO4)cc2CC(=O)N([C@@H](C)CO)C[C@@H]1C
i	-0.9	-0.6	-1.2	-0.7	O=C(N[C@H]1CC[C@@H](CCNC(=O)c2cnccn2)O[C@H]1CO)c1ccc2c(c1)OCO2
i	-2.0	2.0	-3.3	2.2	CC(=O)N[C@H]1CC[C@H](CCNC(=O)C2CC2)O[C@H]1CO
i	7.2	-5.9	-1.7	-1.6	CN1C(=O)c2cc(NC(=O)Nc3ccc(Cl)cc3)ccc2OC[C@@H]2O[C@H](CC(=O)NCCN3CCCCC3)CC[C@@H]21
i	-12.4	3.5	10.0	2.3	C[C@@H](O)C#Cc1ccc([C@H]2[C@@H](CO)N3CCCCN(C(=O)Nc4ccccc4)C[C@@H]23)cc1
i	-1.2&-2.3&2.5	4.6&0.6	3.8&-6.0	-5.1&1.5	C[C@H](CO)N1C[C@H](C)[C@@H](CN(C)Cc2cccc(O)c2)OCc2cnnn2CCCC1=O
i	-6.7	5.7	4.9	2.8	Cc1ccc(C(=O)N2CCC[C@@H]2C(=O)N2CCC[C@H]2C(=O)NCc2ccccc2)cc1C
i	-8.3	2.0	-2.8	-0.7	C[C@H]1CN([C@@H](C)CO)C(=O)c2cc(NC(=O)Cc3cn(C)c4ccccc34)ccc2O[C@@H]1CN(C)C
+	-3.5	6.7	18.1	-6.1	CC(=O)N(C)C[C@H]1Oc2ncc(C#C[C@H](C)O)cc2C(=O)N([C@@H](C)CO)C[C@@H]1C
i	-4.2	3.5	1.0	-2.6	CCCNC(=O)N(C)C[C@@H]1Oc2ncc(C#C[C@@H](C)O)cc2C(=O)N([C@@H](C)CO)C[C@@H]1C
i	1.5	-0.1	2.9	-0.6	CC=Cc1ccc2n(c1=O)C[C@H]1[C@H](CO)[C@@H](C(=O)NCC3CC3)[C@@H]2N1Cc1ccccc1OC (mixture of isomers)
i	-0.8	-11.6	1.5	-7.4	CN(C(=O)c1cccc(NC(=O)Cc2cccc(NC(=O)C3CCCN(C(=O)C4CCCC4)C3)c2)c1)C1CC1 (configuration not stated)
i	-1.7	1.6	7.8	-0.6	O=C(CC1CC1)Nc1ccc2c(c1)[C@H]1C[C@@H](CC(=O)NC3CCCCC3)O[C@@H](CO)[C@H]1O2
i	-1.8	0.0	4.2	2.2	Cc1cccc(C)c1OCc1cn(CC(=O)c2ccc(O)cc2)nn1

# Not all compounds are listed; count on the stated rates, not on these rows.
